N370S GC: inhibits or activates N370S mutant glucocerebrosidase | P04062 | N370S GC spleen homogenate, 4MU-glucoside fluorescence | Potency, µM (highest dose often 59.4 µM), inactives show at the top dose activity change, negative = inhibition, most hits filed as inhibitors | actives 0.092% (n = 330,000);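 further: 0% = full enzyme activity and -100% = no enzyme basal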
TDP1 inh: inhibitors of human tyrosyl-DNA phosphodiesterase TDP1. recombinant TDP1, AlphaScreen DNA substrate cleavage. Potency, µM (doses to about 130 µM), for the others: at the top dose activity change, negative = inhibition, hits mostly inhibitors. actives 0.28% (n = 350,000); further: nearly all actives have a fitted effect of over 40% in size
Target sequence (Q9NUW8 whole entry, looked up): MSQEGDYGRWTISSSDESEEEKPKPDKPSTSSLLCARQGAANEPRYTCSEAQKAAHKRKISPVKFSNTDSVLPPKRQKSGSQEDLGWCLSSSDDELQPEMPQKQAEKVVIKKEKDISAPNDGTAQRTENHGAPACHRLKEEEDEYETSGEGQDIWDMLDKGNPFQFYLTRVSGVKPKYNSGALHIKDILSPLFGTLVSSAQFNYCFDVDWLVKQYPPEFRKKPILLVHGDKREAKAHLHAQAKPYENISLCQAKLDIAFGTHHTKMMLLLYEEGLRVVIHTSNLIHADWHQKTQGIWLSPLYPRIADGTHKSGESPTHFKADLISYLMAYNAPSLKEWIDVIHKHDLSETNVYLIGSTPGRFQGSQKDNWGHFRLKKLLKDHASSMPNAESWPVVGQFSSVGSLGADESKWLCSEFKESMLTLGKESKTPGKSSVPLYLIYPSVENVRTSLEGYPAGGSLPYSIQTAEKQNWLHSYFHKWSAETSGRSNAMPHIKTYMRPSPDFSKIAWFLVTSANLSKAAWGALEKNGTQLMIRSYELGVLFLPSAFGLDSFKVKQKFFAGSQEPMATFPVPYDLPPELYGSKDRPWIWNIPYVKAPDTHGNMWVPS
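Compounds were preincubated with Tdp1 (1 nM final) for 15 min at room temperature before substrate (15 nM final) started a 5 min reaction; beads (10 ug/ml final) were then added for 10 min before AlphaScreen detection.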
* marks the source's active call; other numbers are inactive results; [ ] = dose if it differs, or a comment. The call rests on the fitted dose curve; in most records, active means well fitted curve in the direction sought with a large enough effect; inconclusive means small, poorly fitted or top-dose-only effect, or another doubt; inactive means no such curve, though single readings can be large; an effect the other way counts as inactive or inconclusive. Unless noted, on the % scale 0 is the no-effect control and ±100 the full control effect; potency means the concentration at half of the fitted maximal effect. The list is partial; most or all hits stand in other tables.

`O=C(C1CCN(c2ncnc3c2sc2cccc(F)c23)CC1)N1CCOCC1` gave N370S GC -0.9% and TDP1 inh 1.3%.
For CCOc1ccc(/C=C/C(=O)N(CC)CC(=O)NCc2cccs2)cc1OC the results were N370S GC -10.2%.
Screening COP(=O)(CC(=O)c1ccccc1)CC(=O)c1ccccc1 returned N370S GC -10.7% and TDP1 inh 5.4%.
Screening COc1ccc(C(CNC(=O)COc2ccc(F)cc2Br)N2CCCC2)cc1 (centres undefined) returned N370S GC 22.6% and TDP1 inh 0.0%.
CCCOc1ccc(C(C)=O)cc1CC(C(=O)OCC)C(=O)OCC was read as N370S GC 9.0% and TDP1 inh 3.1%.
For COc1ccc(-c2nnn(CC(=O)NC3CCCc4ccccc43)n2)cc1OC (centres undefined) the results were N370S GC 8.0% and TDP1 inh 4.1%.
Screening CC(C)(C)c1ccc(NC(=O)c2ccc(=O)[nH]n2)cc1 returned N370S GC -27.0%.
Screening O=C(Cn1nc(-c2ccco2)ccc1=O)Nc1cc(Cl)ccc1Cl returned N370S GC -0.2%.
Cc1onc(-c2ccccc2)c1C(=O)OCC(=O)N1CCN(c2ccccc2)CC1 was read as N370S GC 3.3% and TDP1 inh 0.6%.
COc1ccc(CCNC(=O)CCc2ccsc2)cc1OC was read as N370S GC -15.7% and TDP1 inh 12.8%.
For O=C(NCC1CCCO1)c1cc(Br)c(Br)s1 (centres undefined) the results were N370S GC 1.0% and TDP1 inh 1.6%.
Screening O=C(Nc1ncccc1O)c1cccc(S(=O)(=O)N2CCc3ccccc32)c1 returned N370S GC -0.2% and TDP1 inh 6.3%.
Screening CC1CN(C(=O)Cn2cnc3c2c(=O)n(C)c(=O)n3C)CC(C)O1 (centres undefined) returned N370S GC 1.1% and TDP1 inh 0.0%.
Screening COc1ccc(CCNC(=O)Cn2nnc(-c3ccc(N(C)C)cc3)n2)cc1OC returned N370S GC -11.8% and TDP1 inh 4.4%.
For CN(C)c1ccc(C(=O)N2CCCC(N3CCN(Cc4ccc5c(c4)OCO5)CC3)C2)cc1 (centres undefined) the results were N370S GC -1.5% and TDP1 inh 3.9%.
Screening CC/C(C)=N/Nc1nc2sc3c(c2c(=O)[nH]1)CC(C)(C)OC3 returned N370S GC -1.3% and TDP1 inh 2.8%.
`Cc1ccc(CNS(=O)(=O)c2ccc3c(c2)NC(=O)C(C)S3)cc1` (centres undefined) gave N370S GC 1.9% and TDP1 inh 0.3%.
Screening CC(C)(C)[C@H]1C=C(C(=O)NCc2nc3ccccc3[nH]2)O[C@@H](OCCCCO)C1 returned N370S GC 6.5% and TDP1 inh 5.1%.
Screening Cc1cc(C)nc(NNC2=CC(=O)CC(C)(C)C2)n1 returned N370S GC 18.2% and TDP1 inh 5.3%.
COc1ccc(C(=O)COC(=O)c2ccc([N+](=O)[O-])s2)cc1OC was read as TDP1 inh 2.1%.
Screening CCn1ncc2c1C(=O)NC1c3ccccc3C(=O)N21 (centres undefined) returned N370S GC -5.4% and TDP1 inh 2.0%.
Cc1ccc(CN2CCC(n3nccc3NC(=O)c3ccccc3C)CC2)o1 was read as N370S GC -1.6% and TDP1 inh 3.5%[56.1 µM].
`CCCCc1cc(=O)oc2cc(C)cc(OC(C)C(=O)O)c12` (centres undefined) gave N370S GC 4.5% and TDP1 inh 1.1%.
`Cc1ccccc1C(=O)N1CCC(C(=O)NC2CCCCC2)CC1` gave N370S GC 1.5%.
CCCc1cc(C(=O)N2CCN(c3ccc(C(F)(F)F)cn3)CC2)sc1C was read as N370S GC 1.0% and TDP1 inh -18.7%.
For CC(C(=O)NCc1ccccc1)N1CCN(c2ccc(F)cc2)CC1 (centres undefined) the results were N370S GC -1.9%.
Screening O=C(O)CCN1C(=O)C2C3c4ccccc4C(c4ccccc43)[C@@H]2C1=O (some centres undefined) returned N370S GC 6.4% and TDP1 inh 1.2%.
COC(c1ccccc1)c1nnc(CCC(=O)NCCc2ccc(Cl)cc2)o1 (centres undefined) was read as N370S GC -5.1%.
Screening CCCCOC(=O)c1ccc(NC(=O)COC(=O)C2CSC3(C)CCC(=O)N23)cc1 (centres undefined) returned N370S GC 2.9%.
Cc1c(Cl)cccc1NC(=O)CCCCCN1C(=O)CCC1=O was read as N370S GC 4.0% and TDP1 inh 0.0%.
Screening CC(C)C[C@@H]1NC(=O)[C@H](CO)NC(=O)c2cc([N+](=O)[O-])cc(I)c2OCC[C@@H](C(N)=O)NC1=O returned N370S GC 8.8% and TDP1 inh -1.3%.
For Cc1nn(C)c(C(=O)N/N=C/c2cccnc2)c1Cl the results were N370S GC -5.6% and TDP1 inh 2.1%.
CCOc1ccccc1NC(=O)NCc1cccnc1 was read as N370S GC -15.7% and TDP1 inh -5.5%.
CCOCCCNC(=O)Cc1cc(=O)[nH]c(=O)[nH]1 was read as N370S GC 3.0% and TDP1 inh 1.0%.
For O=C(CSCc1ccc(Cl)cc1)N1CCOCC1 the results were N370S GC 2.8% and TDP1 inh 1.9%.
For CCN(CC)c1ccc(/C=N/N2C(=O)c3ccccc3C2=O)c(O)c1 the results were N370S GC 10.0% and TDP1 inh 1.3%.
Screening CCC1CCc2c(sc(NC(=O)c3ccco3)c2C(N)=O)C1 (centres undefined) returned N370S GC 24.4% and TDP1 inh 2.5%.
For O=[N+]([O-])c1ccc2c(c1)C(O)n1ncnc1S2 (centres undefined) the results were N370S GC -11.3% and TDP1 inh -1.2%.
`CCOC(=O)[C@H]1[C@H]2COc3cc(OC)ccc3[C@@H]2N2C(=O)c3cc(F)c(F)cc3NC(=O)[C@@]12C` gave N370S GC -22.5% and TDP1 inh -3.0%.
Screening O=C(NNC(=S)Nc1ccc(Br)cc1)c1cccnc1 returned N370S GC -5.1% and TDP1 inh -5.6%.
For Cc1ccc(S(=O)(=O)NCCC(=O)NNC(=O)c2ccccc2Cl)cc1C the results were N370S GC -0.7% and TDP1 inh -10.3%[0.505 µM].
For O=C(COc1coc(CN2CCN(c3ccccc3)CC2)cc1=O)Nc1cccc(F)c1 the results were N370S GC -10.4% and TDP1 inh -6.8%.
`COC(=O)[C@H](CCSC)NC(=O)[C@@H](Cc1cnc[nH]1)NC(=O)OCc1ccccc1` gave N370S GC 0.4%.
`Cc1cccc(NC(=S)NC(=O)c2ccco2)n1` gave N370S GC 4.3% and TDP1 inh -13.9%.
`Cc1nn(Cc2ccc(Cl)cc2Cl)c(C)c1NC(=O)Cn1nc([N+](=O)[O-])c(Cl)c1C` gave N370S GC -2.9% and TDP1 inh 5.1%.
`Nc1nc(SCC(=O)N2CCc3ccccc3C2)[nH]c(=O)c1-c1ccccc1` gave N370S GC 8.0% and TDP1 inh 2.2%.
Screening C=CCCCCCCCCc1nc(SCC(C)=O)n[nH]1 returned N370S GC -13.5% and TDP1 inh 1.4%.
For O=C(COc1ccc(S(=O)(=O)NC2CCCCC2)cc1)N1CCN(c2cccc(Cl)c2)CC1 the results were N370S GC 0.6% and TDP1 inh 9.1%.

Four entries out of the list, ordered by molecular weight, rising.
Screening CCn1ncc2c1C(=O)NC1c3ccccc3C(=O)N21 (centres undefined) returned N370S GC -5.4% and TDP1 inh 2.0%.
For Cc1nn(C)c(C(=O)N/N=C/c2cccnc2)c1Cl the results were N370S GC -5.6% and TDP1 inh 2.1%.
Cc1ccc(CN2CCC(n3nccc3NC(=O)c3ccccc3C)CC2)o1 was read as N370S GC -1.6% and TDP1 inh 3.5%[56.1 µM].
Screening O=C(Nc1ncccc1O)c1cccc(S(=O)(=O)N2CCc3ccccc32)c1 returned N370S GC -0.2% and TDP1 inh 6.3%.

4 consecutive records already listed:
`O=C(C1CCN(c2ncnc3c2sc2cccc(F)c23)CC1)N1CCOCC1` gave N370S GC -0.9% and TDP1 inh 1.3%.
For CCOc1ccc(/C=C/C(=O)N(CC)CC(=O)NCc2cccs2)cc1OC the results were N370S GC -10.2%.
Screening COP(=O)(CC(=O)c1ccccc1)CC(=O)c1ccccc1 returned N370S GC -10.7% and TDP1 inh 5.4%.
Screening COc1ccc(C(CNC(=O)COc2ccc(F)cc2Br)N2CCCC2)cc1 (centres undefined) returned N370S GC 22.6% and TDP1 inh 0.0%.

Next section.
For Fc1ccccc1OCCCCN1CCCCC1 the results were N370S GC -1.6% and TDP1 inh 3.1%.
For O=C(CN1CCN(Cc2ccccc2)CC1)Nc1ccccc1 the results were N370S GC -1.6%.
Screening CCOc1ccc(CCNC(=O)c2cccc(S(=O)(=O)N3CCOCC3)c2)cc1OCC returned N370S GC -9.1% and TDP1 inh 6.2%[0.505 µM].
For CCOC(=O)C(=O)NC(C)CCc1ccccc1 (centres undefined) the results were N370S GC -10.1% and TDP1 inh 4.5%.
Screening CC(=O)NC(Cc1ccccc1)C(=O)NC1CCN(C(=O)NC2CCCCC2)CC1 (centres undefined) returned N370S GC -15.3% and TDP1 inh 5.3%.
`CC(Oc1cccc(Cl)c1)C(=O)Nc1ccccc1C(=O)N1CCCCC1` (centres undefined) gave N370S GC 2.0% and TDP1 inh 4.0%.
`O=C(NC(=S)NNC(=O)[C@H]1C[C@@H]1c1ccccc1)c1ccc(F)cc1` gave N370S GC 5.6% and TDP1 inh 10.3%.
Screening O=C(NC1(C(F)(F)F)N=C2SCCN2C1=O)c1ccco1 (centres undefined) returned N370S GC 4.4% and TDP1 inh 6.0%.
`CCCc1cc(=O)oc2cc(OCC(=O)NC3CCN(Cc4ccccc4)CC3)ccc12` gave N370S GC -0.2% and TDP1 inh 2.9%.
Cc1ccc(C)c(S(=O)(=O)c2c(N)n(/N=C/c3ccco3)c3nc4ccccc4nc23)c1 was read as N370S GC -4.0% and TDP1 inh 3.8%.
Screening CCN1CCN(c2nc3c(c(=O)[nH]c(=O)n3C)n2Cc2ccccc2)CC1 returned N370S GC -0.2%.
Screening COc1cccc(C(=O)N/N=C(\C)CC(=O)Nc2ccc(N(C)C)cc2)c1 returned N370S GC 0.5% and TDP1 inh 7.8%.
Screening COc1ccc(N(C)S(=O)(=O)c2cccc(C(=O)NCC3CCCCC3)c2)cc1 returned N370S GC 11.7% and TDP1 inh 7.0%.
O=C(Nc1ccc2c(c1)OCO2)N1CCN(c2ccc(F)cc2)CC1 was read as N370S GC 4.0% and TDP1 inh -2.4%.
For Cc1nc2ccccc2n1CCC(=O)O the results were N370S GC -0.3% and TDP1 inh 0.7%.
`COc1ccc(C(=O)N2CCc3cc(OC)c(OC)cc3C2c2cccc([N+](=O)[O-])c2)cc1OC` (centres undefined) gave N370S GC -11.3% and TDP1 inh 7.4%.
`CC(=O)c1ccc(Cc2ncc(C(F)(F)F)cc2Cl)s1` gave N370S GC -3.7% and TDP1 inh 2.8%.
Screening NC(=S)Nc1nccc(-c2cccs2)n1 returned N370S GC 1.9% and TDP1 inh 3.8%.
Screening COc1cccc(OC)c1NC(=O)Cn1nc(C)c2ccccc2c1=O returned N370S GC -6.3%.
`COc1ccc(C(=O)CCC(=O)Nc2ccc(N3CCCCC3)cc2)cc1OC` gave N370S GC -8.2% and TDP1 inh 10.2%.
For CCc1nnc(NC(=O)[C@@H](NC(=O)c2cccc(S(=O)(=O)N3CCOCC3)c2)C(C)C)s1 the results were N370S GC 8.1% and TDP1 inh -3.1%.
Screening CCN(CC)CCCNCC(=O)Nc1cc(C)on1 returned N370S GC -19.8% and TDP1 inh -12.9%.
For O=C(Nc1ccccc1F)c1ccc(CN2CCc3ccccc3C2)cc1 the results were N370S GC -4.4% and TDP1 inh 4.5%.
Screening O=C(COC(=O)/C=C/c1ccccc1[N+](=O)[O-])Nc1ccc(OCc2ccccc2)cc1 returned N370S GC 4.0% and TDP1 inh 8.2%.
Screening O=C1/C(=C/c2cccnc2)SC(=S)N1NS(=O)(=O)c1ccccc1 returned N370S GC -9.4%.
Cc1ccc(-c2ccc(/C=C(\C#N)C(N)=S)o2)c([N+](=O)[O-])c1 was read as N370S GC 4.9%.
Screening Cn1c(SCC(=O)Nc2ccccc2)nnc1-c1ccc(NC(=O)CCc2ccccc2)cc1 returned N370S GC 16.9% and TDP1 inh -2.5%.
For Cc1ccc(C)c(N2CCN(S(=O)(=O)c3cc4c(cc3C)NC(=O)CO4)CC2)c1 the results were N370S GC -2.2%.
CCOc1ccc(CCNC(=O)c2nnc(Cc3ccc(F)cc3)o2)cc1OCC was read as N370S GC -9.1% and TDP1 inh 5.3%.
`O=C(NCCCN1CCOCC1)C(=O)NCC1OCCN1S(=O)(=O)c1cc(F)ccc1F` (centres undefined) gave N370S GC 1.1% and TDP1 inh 0.7%.
For Cc1nc2nc(COc3ccccc3)[nH]n2c(=O)c1Cc1ccccc1 the results were N370S GC 6.4% and TDP1 inh 3.3%.
O=C(Cc1cccc(NC(=O)C2CCCN(C(=O)C3CCCCC3)C2)c1)Nc1cccc(C(=O)N2CCCC2)c1 (centres undefined) was read as TDP1 inh 1.5%.
Screening C=C(C)Cn1c(-c2cccs2)n[nH]c1=S returned N370S GC -13.7%.
CCC(=O)NNc1nc2c(C)cc(C)cc2s1 was read as N370S GC 0.0% and TDP1 inh 1.2%.
COC(=O)C(O)(CC(=O)Nc1cccc(SC)c1)C(F)(F)F (centres undefined) was read as N370S GC 13.4% and TDP1 inh 0.0%.
CC1=C(C(=O)N2CCOCC2)C(c2ccc(Br)cc2)NC(=S)N1c1ccccc1 (centres undefined) was read as N370S GC -0.4% and TDP1 inh 0.0%.
O=C(CN1CCN(Cc2ccccc2Cl)C1=O)NCc1cccnc1 was read as N370S GC 1.2%.
COc1ccc2[nH]c(C)c(C(=O)CN(C)C)c2c1 was read as N370S GC -12.4% and TDP1 inh 4.9%.
COc1ccccc1C(c1nnnn1C(C)(C)C)N1CCN(Cc2ccccc2)CC1 (centres undefined) was read as N370S GC -9.3% and TDP1 inh 2.5%.

Compound activity: PubChem, National Center for Advancing Translational Sciences (NCATS)
